CtBP-E1A inh – inhibitors of CtBP/E1A interaction | AlphaScreen GST-E1A/His-CtBP binding, 1536-well; hits give low values; control for the full effect not named in the record | activity change, % (no concentration beside the values) | 340,000 tested, 0.49% active; in the data active means activity change below about -65%; inconclusive means about -30% to -65%; inactive means above about -30%; further: on the % scale 0 is the no-effect control and ±100 the full control effect; compound concentration not given in the record
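GST-E1A and His-tagged CtBP (125 nM each as 5X stock) were preincubated with pin-transferred compound for 2 h at 37 °C in the dark, then glutathione donor and nickel acceptor beads were added for 1 h before AlphaScreen reading.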
TRPV1 PAM – human TRPV1 potentiation | TRPV1-expressing cells, Fluo-8 calcium influx, capsaicin EC20 potentiation; host cell line not named in the record; control for the full effect not named in the record | Q8NER1 | 320,000 tested, 0.02% active | potentiation, % at 8.33 µM; active means potentiation above 80%; inconclusive means 30% to 80%; inactive means below 30%; further: 0% is about no effect
Target sequence (Q8NER1 whole entry, looked up): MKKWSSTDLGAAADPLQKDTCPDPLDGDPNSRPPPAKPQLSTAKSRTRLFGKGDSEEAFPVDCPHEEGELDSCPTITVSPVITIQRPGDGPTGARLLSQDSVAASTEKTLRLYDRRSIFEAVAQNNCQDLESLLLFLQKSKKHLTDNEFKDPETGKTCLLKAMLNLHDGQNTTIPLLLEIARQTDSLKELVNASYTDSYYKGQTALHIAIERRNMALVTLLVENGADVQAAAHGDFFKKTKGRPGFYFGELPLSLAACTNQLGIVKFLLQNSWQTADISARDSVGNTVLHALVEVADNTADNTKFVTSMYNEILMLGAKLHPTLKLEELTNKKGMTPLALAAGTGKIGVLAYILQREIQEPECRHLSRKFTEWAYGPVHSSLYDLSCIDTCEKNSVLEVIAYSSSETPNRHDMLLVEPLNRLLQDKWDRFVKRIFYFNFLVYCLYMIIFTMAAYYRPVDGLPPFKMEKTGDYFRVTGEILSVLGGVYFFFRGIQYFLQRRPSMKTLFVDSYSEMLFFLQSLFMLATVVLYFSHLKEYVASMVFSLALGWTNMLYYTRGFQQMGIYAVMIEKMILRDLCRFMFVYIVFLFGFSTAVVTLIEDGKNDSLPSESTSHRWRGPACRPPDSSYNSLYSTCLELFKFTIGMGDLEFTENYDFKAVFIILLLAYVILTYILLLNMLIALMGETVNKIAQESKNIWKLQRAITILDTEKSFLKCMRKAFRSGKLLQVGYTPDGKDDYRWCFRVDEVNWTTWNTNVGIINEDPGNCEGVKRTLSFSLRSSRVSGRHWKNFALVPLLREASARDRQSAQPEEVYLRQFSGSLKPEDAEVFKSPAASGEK
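TRPV1-expressing cells were cultured overnight at 35.5C and loaded with Fluo-8 calcium dye for 40 to 90 min at room temperature. After a 10 s baseline, compound was added and calcium influx was read kinetically for 3 min (ex 480/em 520 nm).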
Sfp inh – inhibitors of Bacillus subtilis Sfp phosphopantetheinyl transferase; Biochemical Sfp PPTase activity, qHTS; Potency, µM, for the others: max response, negative = inhibition, usual class: inhibitors; AID 1490; Q9F4F7; 310,000 tested, 3.5% active; active means well fitted inhibition curve with a large enough effect; inconclusive means small, poorly fitted or top-dose-only effect, or another doubt; inactive means no such curve, though single readings can be large or run the other way;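 further: the enzyme is Sfp with the accession as filed and its product quenches rhodamine fluorescence; potency means the concentration at half of the fitted maximal effect; 0% = enzyme reaction without inhibitor and -100% = no enzyme wells; top concentration of the series not given in the record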
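Step 1, compound plus 15 nM Sfp-PPTase, 15 min, room temperature. Step 2, add rhodamine-CoA (5 uM) and BHQ-2-YbbR (12.5 uM). Step 3, read 525/598 nm fluorescence at 0 and 30 min.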
gsp ag – gsp mutant agonism; 340,000 tested, 0.13% active; AID 624287; Potency, µM (highest dose often 76.9 µM), for the others: at the highest dose activation (cAMP increase), hits mostly activators; gsp mutant cells, cAMP HTRF, 30 min; control for the full effect not named in the record; active = well fitted activation curve with a large enough effect; inconclusive = small, poorly fitted or top-dose-only effect, or another doubt; inactive = no such curve, though single readings can be large or run the other way; cell line not stated here;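 further: phosphodiesterase inhibitor Ro 20-1724 added with compounds to block cAMP breakdown; potency means the concentration at half of the fitted maximal effect; nearly all actives have a fitted effect of over 60% in size; about a fifth of the inactives were tested at one dose only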
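Cells stably selected in G418 were plated at 2000/well, grown 16-24 hr, then given compounds in DMSO with the PDE inhibitor […] (300 uM solution added) for 30 min at 37C; cAMP was read by HTRF.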
Menin MLL FP FL – inhibitors of human menin-MLL interaction, wild-type MLL peptide | Fluorescence polarization, fluorescein-MLL peptide displacement from menin | FP activity change, % at 61.4 µM | 290,000 tested, under 10 active | AID 1766; inconclusive = falling polarisation curve, or a change in total fluorescence; inactive = total fluorescence flat and polarisation flat or rising; no compound was filed as active; the % refers to the polarisation; negative = inhibition;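 further: % of control where 0% means no effect; inhibitors lower the polarisation; unlabelled MLL peptide was the positive control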
ClpP mod – qHTS Assay for Activators of ClpP. 340,000 tested, 1.9% active. purified B. subtilis ClpP, FRET peptide cleavage, 20 min. Potency, µM (highest dose often 57.5 µM), without a hit: at the top dose activity change, negative = active. AID 651965, 2013. ATP-dependent Clp protease proteolytic subunit (Bacillus subtilis (strain 168)), P80244; active = well fitted falling curve with a large enough effect; inconclusive = small, poorly fitted or top-dose-only effect; inactive = no such curve, though single readings can be large or run the other way; further: potency means the concentration at half of the fitted maximal effect; the source files actives as falling curves though it sought activators and does not explain the sign; nearly all actives have a fitted effect of over 65% in size; many hits overshoot -100%
Target sequence (P80244 whole entry, looked up): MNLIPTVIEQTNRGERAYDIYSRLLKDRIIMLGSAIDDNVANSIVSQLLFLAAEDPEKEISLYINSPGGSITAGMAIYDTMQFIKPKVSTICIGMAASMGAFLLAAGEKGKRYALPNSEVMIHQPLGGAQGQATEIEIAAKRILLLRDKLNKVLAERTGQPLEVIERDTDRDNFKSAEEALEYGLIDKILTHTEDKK
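ClpP 10 microg/mL final, pH 8 Tris/KCl buffer with BSA, glycerol, Tween-20; compound pinned in; FRET-FV substrate; RT 20 min; Ex320/Em430; ΔFRET vs ADEP 5.8 microM, DMSO, no enzyme.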
gsp antagonist – antagonists of gsp mutant (McCune-Albright syndrome). 340,000 tested, 0.4% active. gsp-mutant cells, cAMP HTRF, 30 min; control for the full effect not named in the record. AID 624288. Potency, µM (doses to about 76.9 µM), for inactives: top-dose activity change, negative = inhibition, usual class: inhibitors; active = falling curve of any shape with a large fitted effect; inconclusive = falling curve, mostly with a smaller effect; inactive = flat or rising curve; cell line not stated here;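 further: intracellular cAMP measured with PDE inhibitor Ro 20-1724 present during compound exposure; potency means the concentration at half of the fitted maximal effect; on the % scale 0 is the no-effect control and ±100 the full control effect; nearly all actives have a fitted effect of over 65% in size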
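HTRF cAMP measurement after 30 min RT detection following 30 min, 37C compound treatment alongside […] (added as 300 uM solution) in G418-selected cells seeded at 2000/well and grown 16–24 h.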
* = called active by the depositor; & = joins results of further samples; [ ] = remark or other dose.

For COc1ccccc1C(=O)Nc1ccnn1C1CCN(Cc2cn(C)c3ccccc23)CC1 the results were TRPV1 PAM 0, Sfp inh 12%, gsp ag -12%, Menin MLL FP FL -9.3, ClpP mod -1.2% and gsp antagonist -9%.
For Cc1cc(C(F)(F)F)n2nc(-c3cccs3)cc2n1 the results were CtBP-E1A inh 1, TRPV1 PAM -5, Sfp inh 5%, gsp ag 3%[15.4 µM], Menin MLL FP FL 2.9, ClpP mod 0.8% and gsp antagonist 5%.
`Cc1cc(=O)[nH]c(SCC(=O)NCc2ccc3c(c2)OCO3)n1` gave CtBP-E1A inh 0, TRPV1 PAM -1, Sfp inh 14%, gsp ag 0%, Menin MLL FP FL -0.9 and gsp antagonist 1%.
For N#CC1=C(N)Oc2c(ccc3cccnc23)C1c1ccccc1 (centres undefined) the results were CtBP-E1A inh inconclusive, TRPV1 PAM -1, Sfp inh 9%, gsp ag 13%, Menin MLL FP FL 0.9, ClpP mod -10% and gsp antagonist 10%.
`C=CCSc1nncn1/N=C/c1ccc(OC)cc1` gave CtBP-E1A inh 3, TRPV1 PAM 10, Sfp inh 17%, gsp ag 10%, Menin MLL FP FL 4.0, ClpP mod 1.0% and gsp antagonist -6%.
`Cc1cccc(N(Cc2ccccc2)C(=O)c2cc(S(=O)(=O)N3CCOCC3)ccc2F)c1` gave CtBP-E1A inh -16, TRPV1 PAM -14, gsp ag -6%[15.4 µM] and gsp antagonist -14%.
Screening CCOC(=O)Nc1ccc2c(c1)N(C(=O)CN1CCN(C)CC1)c1ccccc1S2 returned CtBP-E1A inh -4, Sfp inh -19%, gsp ag -5%, Menin MLL FP FL -5.2, ClpP mod 0.7% and gsp antagonist 9%.
`C[C@@H]1O[C@@H](OCCC(=O)O)[C@H](O)C[C@H]1O` gave CtBP-E1A inh 0, gsp ag -21%, ClpP mod 1.7% and gsp antagonist 5%.
COCCn1c(=N)c(C(=O)NCCc2ccccc2)cc2c(=O)n3cccc(C)c3nc21 was read as CtBP-E1A inh 8, gsp ag 0%, ClpP mod 1.4µM* and gsp antagonist 3%.
For Cc1nnc(SCC(=O)N2N=C(c3ccc(Cl)cc3)CC2c2ccco2)[nH]c1=O (centres undefined) the results were CtBP-E1A inh -20, TRPV1 PAM 12, Sfp inh 50µM*, gsp ag 6%[15.4 µM], Menin MLL FP FL inconclusive, ClpP mod 1.6% and gsp antagonist -55%.
For Cc1cc(C)nc(NC(=O)c2ccc(C)c([N+](=O)[O-])c2)n1 the results were CtBP-E1A inh 11, TRPV1 PAM 18, Sfp inh 8%, gsp ag -28%, Menin MLL FP FL 5.3, ClpP mod inconclusive and gsp antagonist -2%.
O=C1NC(=O)/C(=C\c2ccc(OCc3cccc(C(=O)O)c3)c(Cl)c2)N1 was read as CtBP-E1A inh -16, TRPV1 PAM 7, Sfp inh 4%, gsp ag -8%[15.4 µM] and Menin MLL FP FL -0.6.
Screening CCc1cccc2c1Sc1ccccc1CC2N1CCNCC1 (centres undefined) returned gsp ag -1%, ClpP mod 0.2% and gsp antagonist 5%.
Screening CCOC(=O)Cn1cnc(C)c1 returned CtBP-E1A inh -1, gsp ag -4%[15.4 µM], ClpP mod -0.7% and gsp antagonist 8%.
For COc1ccccc1Nc1nnc(SCc2nnc(-c3cc(OC)c(OC)c(OC)c3)o2)s1 the results were CtBP-E1A inh -10, TRPV1 PAM 1, Sfp inh -3%, gsp ag -3%, Menin MLL FP FL -0.4, ClpP mod -2.2% and gsp antagonist -6%.
Screening CCOc1ccc2[nH]c3nc(SCC(=O)NC4CC4)nnc3c2c1 returned CtBP-E1A inh -15, TRPV1 PAM 9, Sfp inh 2%, gsp ag 4%, Menin MLL FP FL 4.0 and gsp antagonist -6%.
`COc1ccc(CCNC(=O)c2ccccc2-c2ccccc2C(=O)O)cc1OC` gave CtBP-E1A inh 1, TRPV1 PAM -10, Sfp inh 6%, gsp ag 16%[15.4 µM], Menin MLL FP FL -7.3, ClpP mod -2.2% and gsp antagonist 11%.
Screening CCOC(=O)C1CCN(c2c(NCc3ccc(C(=O)NCCC(C)C)cc3)c(=O)c2=O)CC1 returned CtBP-E1A inh -6, TRPV1 PAM -14, Sfp inh 4%, gsp ag -12%, Menin MLL FP FL -1.5, ClpP mod -2.4% and gsp antagonist 7%.
Cc1ccc(C(=O)N2c3ccccc3CC2C)o1 (centres undefined) was read as CtBP-E1A inh 7, TRPV1 PAM 2, Sfp inh 0%, gsp ag -46%[15.4 µM], Menin MLL FP FL -2.2, ClpP mod -3.3% and gsp antagonist -11%.
For Cc1occc1-c1nnc(SCC(=O)Nc2ccccc2)n1C(C)c1ccccc1 (centres undefined) the results were CtBP-E1A inh -6, TRPV1 PAM 16, Sfp inh -12%, gsp ag -37%, Menin MLL FP FL 2.8, ClpP mod 0.2% and gsp antagonist -10%.
`O=C(CSc1nc2ccccc2s1)NCCCN1CCOCC1` gave CtBP-E1A inh 2, TRPV1 PAM -9, Sfp inh -6%, gsp ag -14%, Menin MLL FP FL 2.5, ClpP mod -1.5% and gsp antagonist 8%.
Cc1cc(C)cc(N2CCCn3c2nc2c3c(=O)[nH]c(=O)n2C)c1 was read as CtBP-E1A inh -12, TRPV1 PAM -7, Sfp inh 7%, gsp ag 13%, Menin MLL FP FL 1.5 and gsp antagonist 4%.
Cc1[nH]c(C)c(S(=O)(=O)NCC(C)c2ccccc2)c1C(=O)N1CCCCC1 (centres undefined) was read as CtBP-E1A inh -7, TRPV1 PAM -3, Sfp inh 6%, gsp ag 29%, ClpP mod -1.6% and gsp antagonist 5%.
Screening O=C(NCCC1CC1(Cl)Cl)c1ccc([N+](=O)[O-])cc1 (centres undefined) returned CtBP-E1A inh 4, TRPV1 PAM -24, Sfp inh 14%, gsp ag -3%[15.4 µM], Menin MLL FP FL 2.9, ClpP mod 0.0% and gsp antagonist 10%.
CCn1cc(S(=O)(=O)c2ccccc2)c(=O)c2cc(F)c(N3CCN(C)CC3)cc21 was read as CtBP-E1A inh -15, TRPV1 PAM -9, Sfp inh 10%, gsp ag inconclusive, ClpP mod 4.0% and gsp antagonist -15%.
`O=C(Nc1cccnc1)c1cc(Br)c(Br)s1` gave CtBP-E1A inh 25, TRPV1 PAM -3, gsp ag 3%[15.4 µM] and gsp antagonist -4%.
`O=C(O)CC/C(=N\Nc1ccc([N+](=O)[O-])cc1S(=O)(=O)N1CCOCC1)c1cccs1` gave CtBP-E1A inh 0, TRPV1 PAM 5, Sfp inh inconclusive, gsp ag 6%[15.4 µM], Menin MLL FP FL inconclusive and gsp antagonist inconclusive.
For CCCCOC(=O)c1ccc(N=Nc2c(C)c(C#N)c(O)[nH]c2=O)cc1 the results were CtBP-E1A inh -1, TRPV1 PAM 1, Sfp inh 15%, gsp ag -20%, Menin MLL FP FL 9.5, ClpP mod 2.9% and gsp antagonist inconclusive.
Screening Cc1[nH]nc(N=CC2=C(O)CC(C)(C)CC2=O)c1-c1ccccc1 returned CtBP-E1A inh 8&9, TRPV1 PAM 24, Sfp inh 8%, gsp ag 17%&23%, Menin MLL FP FL 1.6, ClpP mod -9.1% and gsp antagonist -21%&-6%.
For O=P(c1ccccc1)(c1ccccc1)C(O)c1ccccn1 (centres undefined) the results were TRPV1 PAM 6, Sfp inh 79µM*, gsp ag 0%, Menin MLL FP FL 0.3, ClpP mod -0.9% and gsp antagonist 1%.
`O=C(Nc1ccc(N2CCN(C(=O)c3ccco3)CC2)cc1)c1ccc([N+](=O)[O-])cc1Cl` gave CtBP-E1A inh -11, TRPV1 PAM -22, Sfp inh 5%, gsp ag -21%, ClpP mod 0.6% and gsp antagonist -13%.
For CC(=O)Nc1ccc(NC(=O)CN(c2ccc(C34CC5CC(CC(C5)C3)C4)cc2)S(C)(=O)=O)cc1 the results were CtBP-E1A inh 0, TRPV1 PAM 18, Sfp inh -8%, gsp ag 11%, Menin MLL FP FL 3.0, ClpP mod -17% and gsp antagonist 2%.
COc1cccc(CNC(=O)C2CCCN(S(=O)(=O)c3ccc4c(c3)C(C)(C)C(=O)N4C)C2)c1 (centres undefined) was read as CtBP-E1A inh 2, TRPV1 PAM -9, Sfp inh 0%, gsp ag 3%, Menin MLL FP FL -2.4, ClpP mod 1.3% and gsp antagonist -20%.
Screening O=C(CNC(=O)c1ccccc1)N=Nc1c(O)[nH]c2ccc(Br)cc12 returned CtBP-E1A inh -17, TRPV1 PAM 27, Sfp inh 17%, gsp ag 25%, Menin MLL FP FL -17 and gsp antagonist -5%.
CCOc1ccc(C(=O)Nc2ccc(NC(=O)c3ccco3)c(Cl)c2)cc1Br was read as CtBP-E1A inh 11, TRPV1 PAM 8, Sfp inh 10%, gsp ag 20%, Menin MLL FP FL 3.7, ClpP mod inconclusive and gsp antagonist 2%.
For CCN(CC)C(=O)c1nc[nH]c1C(=O)O[C@@H](C)c1ccccc1 the results were CtBP-E1A inh 9, gsp ag -1%, ClpP mod 1.4% and gsp antagonist 13%.
Screening CCN(Cc1nc(-c2ccc(OC)cc2)no1)C(=O)c1ccoc1C returned CtBP-E1A inh -6, TRPV1 PAM 6, Sfp inh 1%, gsp ag -37%[inhibitor], Menin MLL FP FL -8.1 and gsp antagonist -2%.
COc1ccc(CCNC(=O)C2CCN(C(=O)c3ccc(C(C)(C)C)cc3)CC2)cc1 was read as CtBP-E1A inh 10, TRPV1 PAM -2, Sfp inh 15%, gsp ag -7%, Menin MLL FP FL -0.6, ClpP mod 0.3% and gsp antagonist -16%.
`Cc1ccc(S(=O)(=O)N(CC(=O)O)Cc2ccccc2F)cc1` gave CtBP-E1A inh 10, TRPV1 PAM -4, Sfp inh 13%, gsp ag -3%, Menin MLL FP FL 5.0, ClpP mod -1.0% and gsp antagonist 0%.
`COc1ccc(Cc2nnc(NC(=O)C3CCCO3)s2)cc1` (centres undefined) gave CtBP-E1A inh 1, TRPV1 PAM 1, Sfp inh -9%, gsp ag -12%, Menin MLL FP FL 0.1, ClpP mod -0.1% and gsp antagonist 12%.
